Assay outcomes deposited in PubChem BioAssay by several laboratories.
RN4220 kill = S. aureus RN4220 growth inhibition; OD600, 16 h; inhibition, % (no concentration beside the values); hit rate 0.33% among 330,000; AID 1259311;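 active = z-score of -3 or lower and OD600 up to 0.18 on both plates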;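 also: plate controls were untreated cells for no effect and reference antibiotic for full effect; stock transfer was 100 nL into about 80 µL; one replicate is shown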
Autofluor counter = flagged as autofluorescent in microsphere protease counterscreen. compound autofluorescence counterscreen, microsphere flow cytometry; active compounds read high. hit rate 3.1% among 360,000. fluorescence intensity (concentration not given with the values);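 active = at least 3 SD above the mean of all compounds, about 16000 in these data; inconclusive = too few beads counted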;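 also: 100 nL of 1 mM stock went into each well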
PrP 5UTR inh = inhibition of PrP 5' UTR reporter expression. cell-based PrP 5' UTR mRNA reporter, plate reader. inhibition, % (concentration not given with the values). hit rate 0.35% among 340,000;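 active = every replicate at 50% or more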;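 also: 0 = median of the neutral control wells; tested in H4 reporter cells; numbers are from one replicate; inactives centre near -14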
ugtP null kill = compounds lethal to S. aureus RN4220 ugtP deletion mutant | OD600 growth, 16 h; some inactives read as strong as hits | growth inhibition, % (concentration not given with the values) | hit rate 0.54% among 330,000 | AID 1259309;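 active = z-score under -3 and OD600 up to 0.15 on both plates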;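 also: plate controls were untreated wells for no effect and antibiotic for full effect; wells of about 80 µL received 100 nL stock; the first replicate is given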
Mtb hypoxia rep = inhibitors of hypoxia-regulated fluorescent reporter in Mycobacterium tuberculosis; M. tuberculosis hypoxia-regulated fluorescent reporter, fluorescence; fluorescence inhibition, % (no concentration beside the values); hit rate 0.1% among 300,000;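 active = 35 to 45% if threefold the growth effect, above 45% if 1.5-fold the growth effect; inactive = the rest, general growth blockers included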;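 also: wells of about 50 µL received 100 nL stock; 0% = vehicle wells and 100% = reference inhibitor wells; whole bacteria with a GFP reporter of the hypoxia response; strong numbers were not always called active; many hits fall short of the cut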
BJeLR lethal = kills HRASV12-expressing BJeLR cells. BJeLR (HRASV12) viability, CellTiter-Glo ATP luminescence, 48 h; reference of the scale not given here. inhibition, % (concentration not given with the values). hit rate 0.17% among 300,000. AID 1554;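 active = replicate mean above 50%; inconclusive = above 50% but judged a plate artefact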;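 also: 50 nL library stock added to about 25 µL; numbers are from one replicate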
Mtb hypoxia rep growth = recorded beside Mtb hypoxia rep, whose call it bears; growth inhibition, %; measured here: M. tuberculosis growth (absorbance);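 0% = vehicle and 100% = reference antibiotic; read after six days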
* marks the source's active call; other numbers are inactive results; ? = inconclusive; . = no result given. An unsorted share of the library; about 4% have a hit in one of these screens.

Below each compound – RN4220 kill	Autofluor counter	PrP 5UTR inh	ugtP null kill	Mtb hypoxia rep	Mtb hypoxia rep growth	BJeLR lethal
CC(C)(C)c1nnc(NC(=O)c2cccnc2Cl)s1
  1.9	2425	-16	8	7	1	-24
CC(Oc1ccccc1)C(=O)N1CCN=C1SCc1ccccc1F (stereo unspecified)
  1.9	4930	-7	8	2	2	4
C[C@H](CCC(=O)NCC(=O)O)[C@H]1CC[C@H]2C3[C@H](O)C[C@@H]4C[C@H](O)CC[C@]4(C)[C@H]3C[C@H](O)[C@]12C (stereo partly specified)
  .	4354	-17	.	.	.	-1
CC(C)CC(CN1C(=O)C(=O)NCC1CC(C)C)NC(=O)Cc1ccccc1 (stereo unspecified)
  3.4	.	.	-1	2	-1	.
Cc1ccccc1C(=O)NCc1ccncc1
  1.2	4201	5	-3	.	.	8
Cc1sc2ncn(CC(=O)N3CCN(c4ccc(F)cc4)CC3)c(=O)c2c1S(=O)(=O)N1CCOCC1
  1.6	6120	-7	5	-6	-4	-7
CC(=O)NS(=O)(=O)c1ccc(NC(=S)NC(=O)C(C)C)cc1
  -0.6	2791	1	10	.	.	-5
O=C(COc1ccc(S(=O)(=O)Nc2ccccc2)cc1)NCc1cccnc1
  6.7	2587	-11	4	-1	12	-11
Cc1ccc(CCN2CC(C(=O)NCCN3CCOCC3)CC2=O)cc1 (stereo unspecified)
  7.7	.	.	2	16	11	-3
COc1ccccc1C(=O)N/C(=C\c1ccc(Br)cc1)C(=O)NCCC(=O)O
  3.5	4093	-48	6	-2	3	1
Cc1cc(NC(=O)c2ccc3nc(C)sc3c2)no1
  2.7	7222	-54	10	7	1	1
COc1ccc(CN(CCN(C)C)Cc2ccccc2)c(OC)c1
  -3.2	20994*	-34	-8	-3	9	11
CC(Sc1nc(N2CCCCC2)c2c(c1C#N)CCCC2)C(=O)O (stereo unspecified)
  21	3465	-20	44	2	3	-9
Cc1ccc(S(=O)(=O)N=C2SC(CC(=O)Nc3ccc(F)cc3)C(=O)N2c2ccccc2)cc1 (stereo unspecified)
  -2.3	.	.	-2	5	4	.
COc1ccccc1N(CC(=O)NC(C)C)S(=O)(=O)c1cccs1
  1.2	2094	-23	-2	13	8	2

Of the compounds above, these have nitrogen in an aromatic ring.
Below each compound – RN4220 kill	Autofluor counter	PrP 5UTR inh	ugtP null kill	Mtb hypoxia rep	Mtb hypoxia rep growth	BJeLR lethal
CC(C)(C)c1nnc(NC(=O)c2cccnc2Cl)s1
  1.9	2425	-16	8	7	1	-24
Cc1ccccc1C(=O)NCc1ccncc1
  1.2	4201	5	-3	.	.	8
Cc1sc2ncn(CC(=O)N3CCN(c4ccc(F)cc4)CC3)c(=O)c2c1S(=O)(=O)N1CCOCC1
  1.6	6120	-7	5	-6	-4	-7
O=C(COc1ccc(S(=O)(=O)Nc2ccccc2)cc1)NCc1cccnc1
  6.7	2587	-11	4	-1	12	-11
Cc1cc(NC(=O)c2ccc3nc(C)sc3c2)no1
  2.7	7222	-54	10	7	1	1
CC(Sc1nc(N2CCCCC2)c2c(c1C#N)CCCC2)C(=O)O (stereo unspecified)
  21	3465	-20	44	2	3	-9

The main list resumes; the two compounds before the break are reprinted first.
Below each compound – RN4220 kill	Autofluor counter	PrP 5UTR inh	ugtP null kill	Mtb hypoxia rep	Mtb hypoxia rep growth	BJeLR lethal
Cc1ccc(S(=O)(=O)N=C2SC(CC(=O)Nc3ccc(F)cc3)C(=O)N2c2ccccc2)cc1 (stereo unspecified)
  -2.3	.	.	-2	5	4	.
COc1ccccc1N(CC(=O)NC(C)C)S(=O)(=O)c1cccs1
  1.2	2094	-23	-2	13	8	2
CN(Cc1ccccc1)C(=O)c1[nH]cnc1C(=O)NCc1ccccc1
  5.1	4664	-7	-3	3	0	.
O=C(O)c1ccc(NC(=O)c2cccc(NC(=O)c3cccs3)c2)cc1
  0.6	4493	10	6	7	5	8
CC(=O)Nc1ccc(S(=O)(=O)N2CCN(S(=O)(=O)N3CCOCC3)CC2)cc1
  2.1	3737	-15	-1	-3	-4	-1
CCOC(=O)c1c(N2C(=O)CC(Sc3ccccc3C(=O)O)C2=O)sc2c1CCCC2 (stereo unspecified)
  3.5	4665	-22	4	13	6	6
CC1CCCC(C(=O)O)N1C(=O)CCS (stereo unspecified)
  -1.3	4834	-36	0	-3	1	3
CC1=C(C(=O)NC2CCCc3c2cnn3-c2cc(F)cc(F)c2)OCCO1 (stereo unspecified)
  1.5	6678	-21	5	-2	0	-1
Cc1ccccc1-n1c(O)c(C=NC2CCS(=O)(=O)C2)c2ccccc2c1=O (stereo unspecified)
  3.0	4379	-17	-1	10	10	0
CCC1CCCCN1CCCNC(=O)c1cc2c(=O)[nH]c3ccccc3c2n1C (stereo unspecified)
  0.4	5121	-14	-11	-8	8	-1
O=C(Nc1ccc2c(c1)CCC2)c1cccs1
  3.2	4396	-97	3	6	-7	45
O=C(c1ccc2c(c1)[nH]c(=S)n1c3ccccc3nc21)N1CCN(c2cccc(Cl)c2)CC1
  -22	3927	-5	9	-9	1	-9
COc1ccccc1-n1c(-c2ccc(C)cc2)nc2ccccc2c1=O
  5.5	3283	-2	20	2	10	4
COc1ccc(C=Nc2c(-c3ccc(OC)cc3)nc3n2CCS3)cc1
  4.8	.	.	-8	7	2	.
CC1(C)CC(=O)C2=C(C1)N(c1ccc(F)cc1)C(=O)CC2c1ccsc1 (stereo unspecified)
  0.7	4218	1	11	5	8	10
O=C(Nc1ccc2c(c1)OCO2)c1cc(-c2ccc(O)cc2)on1
  1.1	5529	-112	-7	-6	14	-3
COc1ccc(NC(=O)CN2CCCC2)cc1
  4.4	.	-7	0	10	-2	-3

(list continues)
Below each compound – RN4220 kill	Autofluor counter	PrP 5UTR inh	ugtP null kill	Mtb hypoxia rep	Mtb hypoxia rep growth	BJeLR lethal
CN(CCOC(=O)C1c2ccccc2Oc2ccccc21)C(C)(C)C
  9.2	8745	-23	-1	16	14	0
COc1ccc2[nH]cc(C(=O)CN3CCCC(C)(C)C3)c2c1
  2.7	3960	-11	15	-2	8	-15
CC(C)=CCCC1=CCC2C(=O)NNC(=O)C2C1 (stereo unspecified)
  -11	3342	-9	-9	18	7	8
CC1(C)C(=O)C2(CCCCC2)C(=O)OC1c1cccs1 (stereo unspecified)
  -0.3	20727*	-29	-4	-2	-1	6
CC(NC(=O)CN1C(=O)NC(C)(c2cccc3ccccc23)C1=O)c1ccccc1 (stereo unspecified)
  -0.7	4003	-15	5	-5	2	-5
CCCCNc1c(C(=O)OCC)c(C)nc2c1cnn2CC
  4.2	5650	-27	-4	-4	0	-6
CCOc1ncccc1C(=O)OC(C)C(=O)NC1CCCCC1 (stereo unspecified)
  2.8	?	-24	6	-2	-4	.
OC1(c2cccc(C(F)(F)F)c2)CCNCC1
  2.1	20667*	-7	1	2	3	3
COc1ccccc1NC(=S)NNC(=O)c1c(Cl)c(C)nn1C
  6.0	4260	-25	-3	.	.	1
COc1ccc(C(=O)O)cc1S(=O)(=O)NCCN(C)C
  2.9	3440	-18	3	4	1	11
O=C1CCN(C(=S)NCc2ccccc2)CC1
  7.9	4449	-17	1	2	-11	-5
CCN(CC)CCNC(=O)CNC(=O)c1nn(-c2ccc(OC)cc2)c(=O)c2ccccc12
  0.9	2995	16	9	-1	-9	-7
CN(C)S(=O)(=O)c1cccc(-c2cn3cc(Cl)ccc3n2)c1
  2.1	17034*	-3	6	8	-5	-2
COc1ccc(C(C(=O)NCCC(C)C)N(CCO)C(=O)c2snc(C(N)=O)c2N)cc1 (stereo unspecified)
  0.5	4537	-14	4	-3	2	-2
COC(=O)c1ccc(C(=O)OC)c(NC(=O)CN(C)Cc2ccc(Cl)c(Cl)c2)c1
  7.4	6413	-11	-17	13	6	-4

Profiles as entered above.
CCCCNc1c(C(=O)OCC)c(C)nc2c1cnn2CC is listed as RN4220 kill = 4.2; Autofluor counter = 5650; PrP 5UTR inh = -27; ugtP null kill = -4; Mtb hypoxia rep = -4; Mtb hypoxia rep growth = 0; BJeLR lethal = -6
CC1(C)C(=O)C2(CCCCC2)C(=O)OC1c1cccs1 (stereo unspecified) is listed as RN4220 kill = -0.3; Autofluor counter = 20727*; PrP 5UTR inh = -29; ugtP null kill = -4; Mtb hypoxia rep = -2; Mtb hypoxia rep growth = -1; BJeLR lethal = 6

Other results:
Below each compound – RN4220 kill	Autofluor counter	PrP 5UTR inh	ugtP null kill	Mtb hypoxia rep	Mtb hypoxia rep growth	BJeLR lethal
Cc1onc(-c2ccccc2)c1-c1nc2cc(Cl)ccc2c(=O)o1
  .	4381	-7	.	.	.	-2
Cc1ccc(NC(=O)Cn2c(O)c(N=NC(N)=S)c3ccccc32)cc1
  1.3	2816	-3	-1	-1	-5	10
CC[C@@H](C)[C@@H]1CN([C@@H](CN2CCC[C@H]2CN2C(N)=NC[C@H]2CC(C)C)C(C)C)C(=N)N1CCCC1CCCC1
  100*	3954	-5	101*	20	17	.
Cc1ccc(C(=O)NC(=S)NCCN2CCOCC2)cc1
  2.0	2364	-25	2	6	5	-8
O=C(O)/C=C/C(=O)N1CCN(S(=O)(=O)c2cc(C(F)(F)F)ccc2Cl)CC1
  -1.6	3337	-19	4	2	-21	-6
CC(C)C(=O)Nc1cccc(NC(=S)NC(=O)c2ccc3c(c2)OCO3)c1
  3.2	5543	-41	-2	-9	0	1
O=C(CCCc1nc(-c2ccccc2Cl)no1)N1CCOCC1
  4.9	6623	-7	4	17	8	8
COc1ccc(C(=O)OCN2C(=O)c3ccccc3C2=O)cc1
  5.4	2611	-7	8	11	2	-2
NC(=O)CC(NC(=O)Cc1cccc2ccccc12)c1ccc(NCCCN2CCCC2=O)c([N+](=O)[O-])c1 (stereo unspecified)
  .	2996	-9	.	.	.	12
Cc1ccc(NC(=S)Nc2cccc(-c3n[nH]c(=S)o3)c2)cc1
  3.9	6012	-48	-1	10	6	0
O=C(Oc1ccc(OC(=O)c2ccco2)c(S(=O)(=O)c2ccc(Cl)cc2)c1)c1ccco1
  5.6	2315	-23	1	8	10	-4
O=C(COC(=O)c1nc(Cl)ccc1Cl)NCc1ccccc1
  .	2540	-15	.	.	.	4
Cc1ccc(S(=O)(=O)NCC(=O)NCC(=O)N2CCN(c3ncccn3)CC2)cc1C
  1.9	4472	7	7	11	-6	-9
COc1ccc(-c2cc(-c3ccccc3)nc3ncnn23)cc1
  8.4	5529	-16	-7	-1	5	3
COc1cccc(C(=O)Nc2nnc(Cc3ccc(OC)c(OC)c3)s2)c1
  4.1	6392	-39	6	5	16	2

More entries.
Below each compound – RN4220 kill	Autofluor counter	PrP 5UTR inh	ugtP null kill	Mtb hypoxia rep	Mtb hypoxia rep growth	BJeLR lethal
Cc1ccc(S(=O)(=O)N2CCC(C(=O)N/N=C/c3ccncc3)CC2)cc1
  .	3215	-14	.	.	.	-3
CCOC(=O)N1CCN(CC(c2ccccc2)c2ccccc2)CC1
  2.0	3245	-32	14	-4	0	-3
Clc1ccccc1-c1nnc2sc(CCc3ccccc3)nn12
  12	11120	-29	7	7	7	10
O=C(Cn1ncc(N2CCCC2)c(Cl)c1=O)c1ccc(Cl)cc1
  4.2	3309	-74	-7	2	12	8
Fc1ccccc1C1c2[nH]c3ccccc3c2CCN1CCCn1cccn1 (stereo unspecified)
  0.3	4306	-12	22	5	1	1
